Bioassay records deposited in PubChem by several laboratories.
Autofluor counter: compound fluorescence in toxin protease inhibitor counterscreen. AID 624483. 3.1% of 360,000 active. compound autofluorescence counterscreen, microsphere flow cytometry; active compounds read high. fluorescence intensity (concentration not given with the values);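 active = at least 3 SD above the mean of all compounds, about 16000 in these data; inconclusive = too few beads counted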;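 note: 100 nL of 1 mM stock went into each well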
Mtb hypoxia inh: reduces hypoxia-regulated biosensor signal in M. tuberculosis. AID 1159583. M. tuberculosis hypoxia-regulated fluorescent reporter, fluorescence. fluorescence inhibition, % (no concentration beside the values). 0.1% of 300,000 active;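 active = 35 to 45% if threefold the growth effect, above 45% if 1.5-fold the growth effect; inactive = the rest, general growth blockers included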;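 note: wells of about 50 µL received 100 nL stock; 0% = vehicle wells and 100% = reference inhibitor wells; whole bacteria with a GFP reporter of the hypoxia response; strong numbers were not always called active; many hits fall short of the cut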
PrP UTR inh: suppresses PrP 5' UTR mRNA reporter expression | cell-based PrP 5' UTR mRNA reporter, plate reader | 0.35% of 340,000 active | AID 488862 | inhibition, % (concentration not given with the values);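 active = every replicate at 50% or more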;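 note: 0 = median of the neutral control wells; tested in H4 reporter cells; numbers are from one replicate; inactives centre near -14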
ugtP null kill: kills S. aureus RN4220 lacking UgtP; 0.54% of 330,000 active; growth inhibition, % (test concentration not listed); S. aureus RN4220 ugtP deletion, OD600 growth, 16 h; some inactives read as strong as hits;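 active = z-score under -3 and OD600 up to 0.15 on both plates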;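 note: plate controls were untreated wells for no effect and antibiotic for full effect; wells of about 80 µL received 100 nL stock; the first replicate is given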
RN4220 kill: kills Staphylococcus aureus RN4220. S. aureus RN4220 growth, OD600, 16 h. 0.33% of 330,000 active. inhibition, % (test concentration not listed);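 active = z-score of -3 or lower and OD600 up to 0.18 on both plates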;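 note: plate controls were untreated cells for no effect and reference antibiotic for full effect; stock transfer was 100 nL into about 80 µL; one replicate is shown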
BJeLR lethal: BJeLR cell viability loss; inhibition, % (concentration not given with the values); 0.17% of 300,000 active; BJeLR (HRASV12) viability, CellTiter-Glo ATP luminescence, 48 h; reference of the scale not given here; AID 1554;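 active = replicate mean above 50%; inconclusive = above 50% but judged a plate artefact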;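 note: 50 nL library stock added to about 25 µL; numbers are from one replicate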
Mtb hypoxia inh growth: also measured in Mtb hypoxia inh; calls as there; growth inhibition, %; measured here: M. tuberculosis growth (absorbance);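 0% = vehicle and 100% = reference antibiotic; read after six days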
Starred values were filed as active, the others as inactive; ? = inconclusive; · = not tested or not shown. Hits appear at their usual frequency; overall some 4% were active at least once.

SMILES	Autofluor counter	Mtb hypoxia inh	Mtb hypoxia inh growth	PrP UTR inh	ugtP null kill	RN4220 kill	BJeLR lethal
CCS(=O)(=O)NCC(c1ccco1)N1CCN(c2ccc(F)cc2)CC1 (stereo not given)	9960	·	·	2	·	·	1
NC1=NC[C@H](Cc2ccc(O)cc2)N1CCc1cccc(F)c1	2943	·	·	-52	·	·	-5
COc1ccc(C(=O)NCCCn2nc(C)cc2C)cc1S(=O)(=O)N1CCOCC1	5491	12	1	-9	3	2.5	·
COc1ccccc1Cn1c(CO)nc2ccccc21	·	5	1	-19	3	5.9	2
O=C(c1cccc(F)c1)N1CCN(C(=O)c2nn3cccnc3c2Cl)CC1	4919	·	·	-13	2	5.0	1
O=C(Cc1ccccc1)n1nc(-c2ccccc2)nc1NCc1ccco1	4946	-5	-6	-19	-11	-0.5	9
Cc1ccc(C(C[N+](=O)[O-])n2nc(C)cc2C)cc1 (stereo not given)	2817	-2	10	-16	-10	1.4	13
Cc1ccc(S(=O)(=O)N2CCOC2CNC(=O)C(=O)NCCc2ccc(S(N)(=O)=O)cc2)cc1 (stereo not given)	3475	-10	-3	1	3	1.3	0
COc1ccc(C=Nn2c(C)nnc2C)c(OC)c1	·	-1	3	·	-9	-11	·
CC(C)(C)NC(=O)COc1coc(CN2CCN(C(=O)c3ccco3)CC2)cc1=O	?	3	-1	-6	5	-0.1	-10
Cc1ccc(S(=O)(=O)N2CCC(C(=O)N3CCCC3C(=O)N[C@@H](CC(C)C)C(=O)NCC(N)=O)CC2)cc1 (stereo not given in full)	5788	·	·	-28	9	1.1	-4
CCn1c(-c2cccnc2Cl)nc2cc(C)c(C)cc21	1937	-3	6	-24	-2	4.0	2
COc1cccc(-c2cc(C(=O)NCC3CCCO3)c3cc(C)cc(C)c3n2)c1 (stereo not given)	5271	10	10	-31	-1	-0.6	2
Cc1cc(CNC(=O)COc2ccc(C#N)cc2)c2ccccc2n1	3137	11	0	-22	6	-4.0	-3
CCOc1ccc(-n2c(Cc3cc(=O)[nH]c(=O)[nH]3)nnc2SCC(=O)NC2CCCC2)cc1	5800	·	·	-10	1	0.9	·
CCOC(=O)C(=CNCC(=O)OC)C(=O)OCC	2146	·	·	5	5	4.6	-7
CC(C)CCn1c(=O)c(C(=O)Nc2ccccc2S(N)(=O)=O)c(O)c2ccccc21	22781*	·	·	-15	·	·	-16
O=C1CCC(C(=O)N2CCN(c3ccccc3Cl)CC2)CN1CC1CCCCC1 (stereo not given)	4217	0	-2	-8	-4	-5.2	3
CC(C(=O)Nc1ccc2c(c1)OCO2)N1CCC(N2CCCCC2)CC1 (stereo not given)	5900	0	2	-14	3	0.9	·
Cc1ccc(S(=O)(=O)NCCC(=O)N2CCN(c3cccc(Cl)c3)CC2)cc1C	6579	-12	-4	-8	-6	-0.8	-3
COC(=O)c1oc2ccccc2c1-n1cccc1	3506	-5	0	10	4	0.7	-2
S=C1Nc2ccccc2Sc2ccccc21	3634	1	12	1	-3	16	-7
O=C(NCc1ccccc1)C(=O)NCC1OCCN1S(=O)(=O)c1ccc([N+](=O)[O-])cc1 (stereo not given)	2337	-15	-4	-2	-6	3.0	-1
Cc1ccc(NC(=S)N(Cc2cccs2)Cc2cc3cc(C)ccc3[nH]c2=O)cc1	2442	5	2	-20	-5	-2.1	0

A different layout for some results above.
molecule | Autofluor counter | Mtb hypoxia inh | Mtb hypoxia inh growth | PrP UTR inh | ugtP null kill | RN4220 kill | BJeLR lethal
Cc1ccc(S(=O)(=O)N2CCOC2CNC(=O)C(=O)NCCc2ccc(S(N)(=O)=O)cc2)cc1 (stereo not given) | 3475 | -10 | -3 | 1 | 3 | 1.3 | 0
COc1ccc(C=Nn2c(C)nnc2C)c(OC)c1 | · | -1 | 3 | · | -9 | -11 | ·
CC(C)(C)NC(=O)COc1coc(CN2CCN(C(=O)c3ccco3)CC2)cc1=O | ? | 3 | -1 | -6 | 5 | -0.1 | -10
Cc1ccc(S(=O)(=O)N2CCC(C(=O)N3CCCC3C(=O)N[C@@H](CC(C)C)C(=O)NCC(N)=O)CC2)cc1 (stereo not given in full) | 5788 | · | · | -28 | 9 | 1.1 | -4
CCn1c(-c2cccnc2Cl)nc2cc(C)c(C)cc21 | 1937 | -3 | 6 | -24 | -2 | 4.0 | 2
COc1cccc(-c2cc(C(=O)NCC3CCCO3)c3cc(C)cc(C)c3n2)c1 (stereo not given) | 5271 | 10 | 10 | -31 | -1 | -0.6 | 2
Cc1cc(CNC(=O)COc2ccc(C#N)cc2)c2ccccc2n1 | 3137 | 11 | 0 | -22 | 6 | -4.0 | -3
CCOc1ccc(-n2c(Cc3cc(=O)[nH]c(=O)[nH]3)nnc2SCC(=O)NC2CCCC2)cc1 | 5800 | · | · | -10 | 1 | 0.9 | ·
CCOC(=O)C(=CNCC(=O)OC)C(=O)OCC | 2146 | · | · | 5 | 5 | 4.6 | -7
CC(C)CCn1c(=O)c(C(=O)Nc2ccccc2S(N)(=O)=O)c(O)c2ccccc21 | 22781* | · | · | -15 | · | · | -16
O=C1CCC(C(=O)N2CCN(c3ccccc3Cl)CC2)CN1CC1CCCCC1 (stereo not given) | 4217 | 0 | -2 | -8 | -4 | -5.2 | 3
CC(C(=O)Nc1ccc2c(c1)OCO2)N1CCC(N2CCCCC2)CC1 (stereo not given) | 5900 | 0 | 2 | -14 | 3 | 0.9 | ·
Cc1ccc(S(=O)(=O)NCCC(=O)N2CCN(c3cccc(Cl)c3)CC2)cc1C | 6579 | -12 | -4 | -8 | -6 | -0.8 | -3
COC(=O)c1oc2ccccc2c1-n1cccc1 | 3506 | -5 | 0 | 10 | 4 | 0.7 | -2

Further compounds
SMILES	Autofluor counter	Mtb hypoxia inh	Mtb hypoxia inh growth	PrP UTR inh	ugtP null kill	RN4220 kill	BJeLR lethal
COc1ccc(CN2CCNC(=O)C2CC(=O)NCc2cn[nH]c2-c2ccccc2)c(F)c1 (stereo not given)	4190	1	9	-24	-1	0.9	3
CN(C)c1nc(N)nc(Cn2nnc(-c3ccc(C(F)(F)F)cc3)n2)n1	5185	-1	2	-17	3	-4.5	15
CCc1ccc(OCC(=O)Nc2ccc3[nH]ncc3c2)cc1	3233	3	-5	-8	10	3.2	1
Oc1ccccc1C=NC(c1ccccc1)C(O)c1ccccc1 (stereo not given)	11189	8	2	-21	-2	5.1	0
CC(C)(C)OC(=O)NC(COCc1ccccc1)C(=O)NC(CO)C(O)C1CC1C(=O)N1CCCC1 (stereo not given)	·	5	-1	·	0	4.2	·
CN(C)c1ncc(S(=O)(=O)c2ccccc2)c(=O)[nH]1	3554	11	12	9	-5	1.8	-2
CN1CCN(C(=O)/C(=C\c2ccc3c(c2)OCO3)NC(=O)c2cccs2)CC1	3538	·	·	-27	·	·	-1
O=C(NCCNC(=O)c1cc(OCC(F)(F)F)ccc1OCC(F)(F)F)Nc1ccc(OC(F)(F)F)cc1	5325	0	15	-22	-21	-9.3	-6
Cc1cc(C)cc(NC(=O)CCN2C(=O)c3ccccc3S2(=O)=O)c1	5888	1	0	-13	2	6.8	4
Oc1c(CN2CCc3ccccc3C2)cc(Cl)c2cccnc12	5383	1	11	22	-3	3.6	65*
CCCNC(=O)c1ccc(CN2CCc3ccccc3C2)cc1	2781	·	·	-11	1	-1.3	4
COCCNC(=S)Nc1ccc2nc(N3CCOCC3)cc(C)c2c1	3566	-4	10	-16	-6	2.6	-7
COc1ccc(CC(=O)c2ccc(OC3OC(CO)C(O)C(O)C3O)cc2O)cc1 (stereo not given)	3645	1	6	-8	2	2.0	0
CN(Cc1nc(-c2ccccc2)no1)C(=O)c1ccc2c(c1)OCO2	4649	1	-16	-10	7	4.2	2
CCc1nc2ccccc2c(=O)n1-c1ccccc1OC	3900	9	6	-31	3	2.2	-5
O=C(CCNS(=O)(=O)c1cccs1)N1CCN(c2cccc(Cl)c2)CC1	3850	11	-1	-18	4	-0.5	4
CC1(c2ccc(Cl)cc2Cl)OCC(Cn2ccnc2)O1 (stereo not given)	2161	·	·	-10	-8	1.0	4
COc1ccc(N2CC(C(=O)OC(C)C(=O)c3ccccc3)CC2=O)cc1 (stereo not given)	3667	0	-9	-16	-13	-0.3	-5
CCN(C(=O)COC(=O)c1oc2ccc(OC)cc2c1C)C1CCCCC1	5126	3	14	-8	-9	2.0	-7
COc1cc(/C=N/NC(=O)c2cc[n+]([O-])cc2)ccc1O	3555	·	·	-9	·	·	-11
Nc1nc(-c2cccc(F)c2)cs1	4097	-4	2	-50	2	3.0	-3
CCOC(=O)c1c(NC(=O)Cn2cc([N+](=O)[O-])cn2)sc2c1CCC2	9068	2	6	3	-4	3.2	-14
c1ccc(Cn2ccnc2-c2ccco2)cc1	3916	·	·	-12	9	3.2	-7
CC(C)C(=O)NC(C)C(c1cccs1)N1CCN(c2ccccc2)CC1 (stereo not given)	8013	6	-7	-8	9	1.3	-17
CC(=O)Nc1cccc(NC(=O)Nc2ccc(C(C)=O)cc2)c1	4198	1	1	5	2	0.8	8
COc1cc(C=NNC(=O)c2cc(C)oc2C)ccc1OCc1ccccc1	·	0	4	·	11	-4.8	·
O=c1[nH]c2ccccc2cc1-c1nnn(-c2ccc(F)cc2)n1	3123	4	-5	-21	7	8.7	-10
O=C(C1CCN(S(=O)(=O)c2ccccc2F)CC1)N1CCc2ccccc21	?	11	5	-13	2	5.3	·
C[C@H](CO)N1C[C@H](C)[C@@H](CN(C)S(=O)(=O)c2cccs2)Oc2ccc(NC(=O)Cn3cnnn3)cc2C1=O	3477	8	10	5	-1	2.8	·
O=[n+]1c2c(n([O-])c3cc(F)c(N4CCCC4)cc31)CCC2	?	·	·	-12	·	·	-6
Cc1cccn2c(=O)c(/C=C(\C#N)C(=O)NC3CCS(=O)(=O)C3)c(N3CC(C)OC(C)C3)nc12 (stereo not given)	5918	11	-1	-14	4	4.8	-3
CCOC(=O)c1ccc(NC(=S)N(CCN2CCCCCC2)Cc2ccco2)cc1	4343	10	-1	-36	1	3.6	6
CC(C)(C)C(=O)Nc1cc(NC(=O)C(C)(C)C)cc(C(=O)Nc2cc(C(=O)O)cc(C(=O)O)c2)c1	2710	7	-4	-13	-2	3.1	1
Cc1ccc(S(=O)(=O)N2CCC(C(=O)NCCc3ccccn3)CC2)cc1	4019	-2	12	-33	3	6.5	1
CSC(=S)NN=C(C)c1ccc(Br)cc1	·	-7	5	·	-12	1.4	·
CSc1ccc(C=Nn2c(C)cc(C)cc2=O)cc1	·	10	14	·	3	5.2	·
COc1ccc(C2=NNC(c3cccs3)=Nc3ccc(OC)cc32)cc1	2859	0	2	-25	-6	-19	0
Cc1ccc(C)c(NC(=O)CSc2nc(C)cs2)c1	?	9	14	-16	2	4.9	·
CCOc1cc(C=NN2CCOCC2)ccc1OCc1ccc(C(=O)OC)o1	·	2	-4	·	10	5.1	·
COC(=O)C1=C(N)Oc2cc(C)n(CC3CCCO3)c(=O)c2C1c1ccccc1OC (stereo not given)	2479	11	14	-23	-3	-5.9	-7
CCOC(=O)c1cc(C(=O)NNC(=O)c2cccc([N+](=O)[O-])c2)c(C)nc1C	6533	6	5	-7	11	2.7	·
CCOC(=O)Nc1ccc2c(c1)N(C(=O)CN(CC)CC)c1ccccc1CC2	3755	-1	-7	-22	-2	-4.0	10
O=C(COC(=O)CCC(=O)c1cccs1)NCCc1ccccc1	3983	17	7	-10	9	6.7	·
NC(=NOS(=O)(=O)c1ccc([N+](=O)[O-])cc1)c1ccncc1	·	-3	-8	·	7	7.3	·
O=C1OC[C@H](Cc2ccc3c(c2)OCO3)/C1=C\c1ccc2c(c1)OCO2	4109	·	·	-8	-8	16	10
Fc1ccc(NC(=S)Nc2cccc(Cl)c2)cc1	2043	15	-1	-10	-3	-2.3	5
Cc1c(-c2ccccc2)[n+](=O)c2c(n1[O-])CCCC2	3679	0	1	-60	1	1.5	-3
CCCC(=O)Nc1ccc2c(c1)nc(CCNC(=O)c1ccco1)n2C	6524	5	-7	·	1	1.7	1
N#CC(C#N)=NNc1ccc(S(=O)(=O)N2CCCCC2)cc1	2361	19	18	-11	9	39	-13
CC(=O)Nc1ccc(S(=O)(=O)Nc2nc3ccc(C)cc3s2)cc1	10037	25	7	-20	1	2.9	-1
COCc1[nH]nc2c1C(c1ccccc1OC)C(C#N)=C(N)O2 (stereo not given)	2025	·	·	-2	4	1.9	3
Brc1ccc2nc(-c3ccncc3)c(NC3CCCC3)n2c1	4301	4	2	-31	4	0.4	2
O=C(c1cccc2c1-c1ccccc1/C2=N/O)N1CCCCC1	20508*	·	·	-41	·	·	5
Cc1[nH]c2ccccc2c1-c1nc(-c2ccc(Cl)cc2)nnc1-c1ccccc1	·	6	5	·	-6	6.3	0
